Screening data (PubChem BioAssay)
Sa growth inh – blocks Staphylococcus aureus growth. S. aureus RN4220 growth, OD600, 20 h, 42 °C; hits give low values. relative growth, % (no concentration beside the values). 170,000 compounds, 0.53% hits. AID 720641;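 active = growth at 42 °C up to 50% and 20 or more points under that at 30 °C, or under 10% at both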;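 also: 300 nL library stock went into each well; scaled to the means of positive and negative controls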
GIV Gai3 FP – inhibitors of GIV GBA-motif binding to rat Galpha-i3 | percent of control (FP), % (concentration not given with the values) | 210,000 compounds, 0.42% hits | Galpha-i3/FITC-GIV peptide fluorescence polarization, 90 min; hits give low values; scaled: aluminum fluoride 0%, vehicle 100%;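 active = replicate mean at 85% of control or lower, very high polarization wells dropped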;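 also: wells of about 15 µL received 100 nL stock; the first replicate is given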
Target sequence (P08753 whole entry, looked up): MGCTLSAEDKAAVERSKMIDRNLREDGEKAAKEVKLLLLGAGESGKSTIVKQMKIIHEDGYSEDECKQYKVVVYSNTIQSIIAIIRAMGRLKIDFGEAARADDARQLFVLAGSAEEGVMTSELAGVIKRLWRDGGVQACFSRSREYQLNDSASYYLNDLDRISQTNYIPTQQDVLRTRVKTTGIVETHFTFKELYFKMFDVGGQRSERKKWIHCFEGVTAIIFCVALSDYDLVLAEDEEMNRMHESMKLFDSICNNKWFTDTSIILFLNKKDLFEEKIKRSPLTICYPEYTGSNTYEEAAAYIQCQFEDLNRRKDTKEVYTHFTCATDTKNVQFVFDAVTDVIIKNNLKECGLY
HCMV UL50-53 inh – disrupts HCMV UL50-UL53 complex binding; HTRF UL50-UL53 interaction, normalized percent inhibition; 190,000 compounds, 0.15% hits; AID 1918969; inhibition, % (test concentration not listed);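 active = both replicates at 50% or more, plus weaker picks with an unusually low signal ratio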;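 also: stock transfer was 100 nL into about 20 µL; 0% = negative control wells and 100% = wells with untagged competitor protein; inactives centre near -12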
Sa growth inh second temp – further read-out of Sa growth inh, marked with its call; relative growth, %; measured here: growth at 30 °C;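 optical density after 20 h as mean of two plates; 100% = untreated growth and lower means inhibition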
An asterisk follows results filed as active; . = not tested or not shown.

SMILES	Sa growth inh	Sa growth inh second temp	GIV Gai3 FP	HCMV UL50-53 inh
CCOC(=O)C1CCN(c2ccccc2CN2CCN(c3ncc(C(F)(F)F)cc3Cl)CC2)CC1	93	87	107	-27
CCc1nc(-c2ccc(C)c(S(=O)(=O)N3CCC(C(=O)Nc4nc5ccc(C)cc5s4)CC3)c2)no1	.	.	95	-25
COc1ccc(-c2cn3cccnc3n2)cc1NC(=O)C(C)C	101	87	103	.
Cc1cc(C)c2oc(-c3cccc(NC(=O)c4cc(Br)ccc4Cl)c3C)nc2c1	.	.	97	-30
O=c1occ(CO)c(O)c1CN1CCCCC1	94	89	.	-21
O=C(CSCc1cnn(-c2ccccc2)c1-n1cccc1)Nc1ccccc1Br	96	75	99	.
C=Cc1ccc(CSC2=Nc3ccccc3NC(CC(=O)OCC)=C2)cc1	.	.	107	-38
O=C(Nc1ccc(Br)cc1)C1(c2ccccc2)CCCC1	108	87	.	-1
CCc1ccc(CNC(=O)Cn2nc(-c3ccc(C)cc3)ccc2=O)cc1	147	65	102	.
Cn1c(=O)c(-c2noc(CCC(=O)Nc3ccccc3Cl)n2)nn(-c2ccccc2)c1=O	.	.	105	-42

4 structures from above, ordered by count of non-hydrogen atoms, rising.
SMILES	Sa growth inh	Sa growth inh second temp	GIV Gai3 FP	HCMV UL50-53 inh
Cc1cc(C)c2oc(-c3cccc(NC(=O)c4cc(Br)ccc4Cl)c3C)nc2c1	.	.	97	-30
Cn1c(=O)c(-c2noc(CCC(=O)Nc3ccccc3Cl)n2)nn(-c2ccccc2)c1=O	.	.	105	-42
CCOC(=O)C1CCN(c2ccccc2CN2CCN(c3ncc(C(F)(F)F)cc3Cl)CC2)CC1	93	87	107	-27
CCc1nc(-c2ccc(C)c(S(=O)(=O)N3CCC(C(=O)Nc4nc5ccc(C)cc5s4)CC3)c2)no1	.	.	95	-25

(cont.)
SMILES	Sa growth inh	Sa growth inh second temp	GIV Gai3 FP	HCMV UL50-53 inh
Cc1ccc(N=Cc2ccc3ccccc3n2)cc1	104	88	.	-15
S=C(Nc1ccc(Oc2ccccc2)cc1)NN1CCOCC1	104	100	107	6
COCC(=O)Nc1ccc(C(C)C)cc1	105	124	100	0
CCOc1nc2cnccc2n(C(CC)C(=O)NC2CCCCC2)c1=O (configuration not stated)	93	83	101	-24
CC(CNC1CCN(C)CC1)c1ccccc1 (configuration not stated)	102	86	104	6
CNc1nnc(SCc2csc3ccccc23)s1	117	86	101	-8
CC(Oc1cccc(Cl)c1)C(=O)N1CCCC1 (configuration not stated)	98	88	.	-14
COc1cccc(C(=O)n2nc(-c3cccnc3)nc2NCc2ccc(F)cc2)c1	107	80	99	-35
CCCSc1ncc(Cl)c(C(=O)N(Cc2ccc(N(C)C)cc2)C2CCS(=O)(=O)C2)n1 (configuration not stated)	92	77	109	4
COc1cc(C=C2C(=O)N(C)C(=O)N(C)C2=O)ccc1OCCSc1ccc(C)cc1	.	.	109	15
CCOc1ccc(CCNC(=O)Cc2noc3ccccc23)cc1	101	91	101	.
Cc1cc2nc(C)c(=O)n(CC(=O)NC3CCS(=O)(=O)C3)c2cc1C (configuration not stated)	.	.	112	-28
O=C(Cn1nc2n(Cc3ccccc3)c(=O)c3ccccc3n2c1=O)c1ccc(Br)cc1	.	.	98	-36
Cc1nc2ccccc2nc1CSc1nnc(C2COc3ccccc3O2)n1C (configuration not stated)	100	89	.	-37
Cc1cccc(NC(=O)c2cccc(Cn3nc(C)c(Cl)c3C)c2)c1C	87	92	.	-1
COC(=O)C(C)Sc1nnc(Cc2cc(=O)[nH]c(=O)[nH]2)n1-c1cccc(C)c1 (configuration not stated)	92	83	101	-32
CCN(CC)c1ccc(C(=O)Nc2nc(-c3ccc(C)o3)cs2)cc1	70	62	97	-27
CC(C)CC(C(=O)O)N1Cc2ccccc2C1=O (configuration not stated)	.	.	96	-4
CN1CCN(c2cnn(-c3ccccc3)c(=O)c2Br)CC1	97	84	100	-26
NNC(=O)CN1C(c2ccc(Cl)cc2)=Nc2ccc(Cl)cc2C1c1ccccc1 (configuration not stated)	71	61	113	.
Cc1ccc(N2CC(C(=O)N3CCN(c4ccc(-c5noc(C6CCC6)n5)cc4)CC3)CC2=O)cc1 (configuration not stated)	.	.	103	-32
Cc1cc(C)c2cc(C(=O)N3CCc4ccccc4C3)[nH]c2c1	101	77	100	-16
CC(C)[C@H](NC(N)=O)C(=O)NCc1ccccc1	85	93	.	-4
CC(C(N)=O)N1C(=O)c2ccccc2C1=O (configuration not stated)	93	96	.	-7
O=C(OCCOc1ccccc1)c1cc(=O)[nH]c2ccccc12	82	88	.	-40
Cc1oc(-c2ccc(Cl)cc2)cc1C(=O)N1CCOCC1	119	100	100	-1
COCc1cc(C)nc(OCC(=O)N/N=C/c2cccnc2)c1C#N	93	92	106	-5
Nc1nonc1-c1nc2ccccc2n1CC(=O)N1CCCCC1	96	77	108	-15
O=C(NCc1ccc2c(c1)OCO2)C1CCN(c2ccc(-c3ccc(F)cc3)nn2)CC1	.	.	101	-23
COc1ccccc1CNc1nccn(-c2ccccc2)c1=O	90	89	98	.
CC(=O)N1c2ccccc2C(=O)C1Sc1nc(C)cc(-c2ccccc2)n1 (configuration not stated)	87	91	109	.
COC(=O)C1=C(N)CC(c2ccccc2)S1 (configuration not stated)	109	93	105	3
O=c1ccc(-c2ccccc2)nn1Cc1c(F)cccc1Cl	95	88	100	-31
O=C(O)CCN(Cc1ccco1)S(=O)(=O)c1cccc2nsnc12	94	94	104	-122
Cc1ccc2c(c1)n(Cc1cccc(F)c1)c(=O)c1nc(C(=O)Nc3ccc(N4CCOCC4)cc3)nn12	.	.	101	8
Cc1ccc(Cn2ccc(NC(=O)c3cc(-c4ccc(F)cc4)on3)n2)cc1	100	88	102	1
O=C(NCCN1CCOCC1)c1ccc2c(Cl)c3c(nc2c1)CCC3	101	95	104	2
OC1(c2ccccc2)CCC2C1CCC2(O)c1ccccc1 (configuration not stated)	98	100	106	6
Oc1ccc(C(=S)N2CCN(Cc3ccccc3)CC2)cc1	103	84	97	-2
CN(C)S(=O)(=O)c1ccc2oc(SCN3C(=O)c4ccccc4C3=O)nc2c1	73	92	.	-37
Cc1cccc(C(=O)NCCCn2ccnc2)c1	85	82	102	.
CCOC(=O)Cc1csc(NC(=O)Cn2c(=O)oc3ccccc32)n1	96	81	.	2
CN(Cc1nnc(-c2ccc(Cl)cc2)o1)S(=O)(=O)c1ccc2ccccc2c1	82	81	.	-12
O=C(O)c1nnc(Cl)c2ccccc12	114	96	101	0
O=C(COc1ccc(Cl)cc1Cl)Nn1c(-c2cccc([N+](=O)[O-])c2)nc2ccccc2c1=O	.	.	101	-21
Oc1ccc(NCc2cccs2)cc1	78	52	104	-10
CN1C(=O)c2ccccc2N2C(=O)CCC12C(=O)OCc1ccc(C#N)cc1 (configuration not stated)	101	84	.	-17
COc1ccc(N2CCN(CCNc3nc4ccccc4n4c(C)nnc34)CC2)cc1	83	89	103	-3
NC(=O)c1ccccc1NC(=O)Cc1csc2nc(-c3ccc(F)cc3)cn12	.	.	100	-4
CCOC(=O)Cn1nnnc1CN(CCc1ccc(OC)c(OC)c1)Cc1cc2c(C)ccc(C)c2[nH]c1=O	120	108	102	-10

Other compounds:
SMILES	Sa growth inh	Sa growth inh second temp	GIV Gai3 FP	HCMV UL50-53 inh
CCOC(=O)C/C(C)=N/c1ccnn1-c1ccccc1	117	80	101	-6
CCN(c1ccccc1)c1cc(N(C)C)c2nonc2c1[N+](=O)[O-]	.	.	112	-73
NCc1nc2cc3ccccc3cc2[nH]1	97	96	102	-63
Cc1cccc(N(C2C=CS(=O)(=O)C2)S(=O)(=O)c2ccccc2)c1 (configuration not stated)	95	80	102	.
Cc1ccc(S(=O)(=O)N=S(Cc2ccccc2)Cc2ccccc2)cc1	109	96	104	1
Cc1ccc(-c2nn(-c3ccccc3)cc2CCC(=O)NCc2ccccc2Cl)cc1	.	.	103	5
O=C(O)CCCC(=O)N1CCc2ccccc21	93	87	102	-13
CCOC(=O)C1=C(N)OC2=C(C(=O)CCC2)C1c1ccc(OC)cc1 (configuration not stated)	88	87	.	-45
COc1ccc(Nc2nc3ccc(C)cc3nc2Nc2ccc(OC)cc2)cc1	79	86	109	.
CCOC(=O)C(C)Sc1ncnc2c1nnn2-c1ccc(OC)cc1 (configuration not stated)	112	94	103	.
COc1ccccc1CCNc1ncnc2c1nnn2C	88	79	97	.
O=c1cc(CSc2nnnn2-c2ccccc2)nc(Nc2ccc(F)cc2)[nH]1	104	80	100	-3
CN1CCN(C(=O)C2C3C=CC(C3)C2C(=O)O)CC1 (configuration not stated)	98	92	97	-10
C=CCn1c(SCC(=O)Nc2ccc(C(=O)OC(C)C)cc2)nnc1-c1ccco1	99	86	99	-24
CCOC(=O)CSc1nc2ccc(NC(=O)COc3ccccc3)cc2s1	105	86	99	-20
CCOC(=O)c1nnn(CC(=O)Nc2ccc(C)cc2Cl)c1C(=O)OCC	95	87	101	-5
S=C(SCc1ncon1)N1CCSCC1	42	29	107	-26
Cc1cc(C)cc(OCC(=O)Nc2c(C(=O)c3ccccc3)oc3ccccc23)c1	108	90	109	-2
O=C(NC1CCCCC1)c1ccc(CSc2nc3ccncc3n2Cc2cccc(F)c2)cc1	99	88	105	0
Cc1cc(C)c(NC(=O)c2sc3nc(C)cc(C)c3c2NC(=O)c2ccccc2)c(C)c1	95	91	108	-12
OCCNc1ncnc2sc3c(c12)CCCC3	84	86	101	-16
C=CCn1c(SCC(=O)N(C)C2CCS(=O)(=O)C2)nc2ccccc2c1=O (configuration not stated)	95	95	.	-24
CC(O)C(O)[C@H]1CNc2nc(N)[nH]c(=O)c2N1 (some centres not stated)	.	.	103	-53
O=C(Nc1ccc2nc(N3CCN(C4CCCCC4)CC3)cc(C(=O)O)c2c1)c1ccccc1Cl	.	.	107	-49
Nn1c(=O)c2ccccc2n2c(SCC(=O)N(c3ccccc3)c3ccccc3)nnc12	90	83	99	.
CCOC(=O)N1CCc2c(sc(NCc3ccc(OC)c(OC)c3OC)c2C(=O)Nc2ccc(OC)cc2OC)C1	94	84	106	.
COc1ccc(CNC(=O)c2sc3nc4n(c(=O)c3c2C)CCC4)cc1	109	88	101	-7
CS/C(N)=N/C(N)=Nc1ccc(Cl)cc1	122	89	101	-16
O=C(CSc1ccccn1)NCC(=O)c1ccccc1	100	92	.	4
COc1ccc(SCC(=O)N(c2ccccc2)C2CCS(=O)(=O)C2)cc1 (configuration not stated)	95	83	.	-14
CCOc1ccc(-c2cc(C(=O)N3CCN(c4ccc(C)cc4)C(C)C3)c3ccccc3n2)cc1 (configuration not stated)	112	100	100	.
COc1ccccc1-c1nc(-c2ccc(Br)o2)no1	106	99	103	.
Cn1c(C(C#N)C(=O)c2ccc(Cl)c(S(=O)(=O)N3CCCCCC3)c2)nc2ccccc21 (configuration not stated)	105	94	.	-7
Cc1ccc(C(=O)N/C(=C/c2ccco2)C(=O)Nc2nccs2)cc1	109	57	112	-30
Cc1cc(=O)oc2cc(NC(=S)NCCN3CCCCC3)ccc12	113	105	106	-12
O=C(NCC(c1ccc2c(c1)OCO2)N1CCOCC1)c1ccc(F)cc1 (configuration not stated)	97	93	94	.

By substructure: the entries above with an aryl thioether with sulfur outside any ring
SMILES	Sa growth inh	Sa growth inh second temp	GIV Gai3 FP	HCMV UL50-53 inh
CNc1nnc(SCc2csc3ccccc23)s1	117	86	101	-8
CCCSc1ncc(Cl)c(C(=O)N(Cc2ccc(N(C)C)cc2)C2CCS(=O)(=O)C2)n1 (configuration not stated)	92	77	109	4
COc1cc(C=C2C(=O)N(C)C(=O)N(C)C2=O)ccc1OCCSc1ccc(C)cc1	.	.	109	15
Cc1nc2ccccc2nc1CSc1nnc(C2COc3ccccc3O2)n1C (configuration not stated)	100	89	.	-37
COC(=O)C(C)Sc1nnc(Cc2cc(=O)[nH]c(=O)[nH]2)n1-c1cccc(C)c1 (configuration not stated)	92	83	101	-32
CC(=O)N1c2ccccc2C(=O)C1Sc1nc(C)cc(-c2ccccc2)n1 (configuration not stated)	87	91	109	.
CN(C)S(=O)(=O)c1ccc2oc(SCN3C(=O)c4ccccc4C3=O)nc2c1	73	92	.	-37
CCOC(=O)C(C)Sc1ncnc2c1nnn2-c1ccc(OC)cc1 (configuration not stated)	112	94	103	.
O=c1cc(CSc2nnnn2-c2ccccc2)nc(Nc2ccc(F)cc2)[nH]1	104	80	100	-3
C=CCn1c(SCC(=O)Nc2ccc(C(=O)OC(C)C)cc2)nnc1-c1ccco1	99	86	99	-24
CCOC(=O)CSc1nc2ccc(NC(=O)COc3ccccc3)cc2s1	105	86	99	-20
O=C(NC1CCCCC1)c1ccc(CSc2nc3ccncc3n2Cc2cccc(F)c2)cc1	99	88	105	0
C=CCn1c(SCC(=O)N(C)C2CCS(=O)(=O)C2)nc2ccccc2c1=O (configuration not stated)	95	95	.	-24
Nn1c(=O)c2ccccc2n2c(SCC(=O)N(c3ccccc3)c3ccccc3)nnc12	90	83	99	.
O=C(CSc1ccccn1)NCC(=O)c1ccccc1	100	92	.	4
COc1ccc(SCC(=O)N(c2ccccc2)C2CCS(=O)(=O)C2)cc1 (configuration not stated)	95	83	.	-14
